# Screening data from PubChem BioAssay.
# MbtI inh – MbtI salicylate synthase inhibition. AID 493033. purified MbtI enzyme, fluorescence intensity read-out. P9WFX0. actives 0.89% (n = 100,000). inhibition, %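 (about 17 µg/mL by stock and volumes)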;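 active = above 50% in both replicates, above 80% if mildly self-fluorescent; inactive = the rest, strongly fluorescent compounds included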;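 note: 0% = mean of negative and 100% = mean of positive controls; one replicate is shown; some compounds called inactive have numbers as strong as hits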
# Target sequence (P9WFX0 whole entry, looked up): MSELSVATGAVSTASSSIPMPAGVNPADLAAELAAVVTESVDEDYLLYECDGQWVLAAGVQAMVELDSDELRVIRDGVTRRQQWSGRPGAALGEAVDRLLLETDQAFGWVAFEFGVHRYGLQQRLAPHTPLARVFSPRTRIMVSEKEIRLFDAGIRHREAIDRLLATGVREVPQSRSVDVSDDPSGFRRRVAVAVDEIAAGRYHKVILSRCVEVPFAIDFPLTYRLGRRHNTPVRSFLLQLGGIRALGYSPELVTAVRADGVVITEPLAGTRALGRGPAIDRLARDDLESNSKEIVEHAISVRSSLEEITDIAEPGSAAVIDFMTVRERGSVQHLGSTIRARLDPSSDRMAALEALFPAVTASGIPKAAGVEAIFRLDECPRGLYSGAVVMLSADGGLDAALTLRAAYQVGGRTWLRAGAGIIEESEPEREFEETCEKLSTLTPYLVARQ
# MenB inh – Mtb MenB enzyme inhibition. MenB enzyme assay, absorbance read-out; some hits fall short of the stated cut. inhibition, %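 (about 12 µg/mL by stock and volumes)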. AID 540299. actives 0.43% (n = 100,000);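 active = mean of two replicates above 30%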;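 note: 0% = no compound and 100% = wells with inactive enzyme; the first replicate is given; strong numbers were not always called active; inactives centre near -10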
# Polio RdRp inh – poliovirus RNA polymerase inhibition | % elongation, % (compound at 16.7 µg/mL) | P03300 | AID 588519 | poliovirus polymerase elongation, fluorescence polarization; active compounds read low | actives 0.66% (n = 150,000); in the data active = % elongation below about 90%; note: some results filed as inactive read as strong as hits
# Target sequence (P03300 1749-2209 limits assumed): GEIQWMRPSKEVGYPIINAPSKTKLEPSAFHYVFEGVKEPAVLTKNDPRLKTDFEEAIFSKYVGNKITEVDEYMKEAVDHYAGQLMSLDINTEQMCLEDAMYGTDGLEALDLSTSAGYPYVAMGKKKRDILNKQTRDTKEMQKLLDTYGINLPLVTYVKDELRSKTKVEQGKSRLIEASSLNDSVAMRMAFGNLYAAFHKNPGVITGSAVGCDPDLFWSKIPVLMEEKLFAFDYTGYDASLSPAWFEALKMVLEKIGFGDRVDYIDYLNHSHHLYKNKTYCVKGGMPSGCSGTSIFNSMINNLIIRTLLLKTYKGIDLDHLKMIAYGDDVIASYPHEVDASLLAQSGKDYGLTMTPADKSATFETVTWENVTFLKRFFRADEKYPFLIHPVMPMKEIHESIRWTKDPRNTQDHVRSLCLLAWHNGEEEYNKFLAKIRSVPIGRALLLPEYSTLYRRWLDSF
# Polio RdRp inh intensity – further read-out of Polio RdRp inh, marked with its call; % elongation; measured here: total intensity read-out; formula for this scale not given here;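 total fluorescence in place of polarization; lower means less elongation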
# Active calls of the source: *; . = no result given; & = joins results of further samples.
# Results follow in this order: MbtI inh, MenB inh, Polio RdRp inh, Polio RdRp inh intensity
c1ccc(N=C(Nc2ccccc2)Nc2ccccc2)cc1
  -5, -24, 102, 105
CSCCSc1nc(-c2cccs2)c(-c2cccs2)[nH]1
  11, -42, 103, 98
NC(=O)c1ccc(N=Cc2ccc(O)cc2)cc1
  25, -74, 99, 101
CC(=O)S[C@@H]1CC2=CC(=O)CC[C@]2(C)[C@H]2CC[C@@]3(C)[C@@H](CC[C@@]34CCC(=O)O4)C12 (stereo partly specified)
  -2, 11, 97, 97
Cc1cc(=O)[nH]c(NN=C2CCN(Cc3ccccc3)CC2)n1
  -21, -6, 106, 104
O=C(CCNC(=O)c1ccccc1)Oc1ccc2c(c1)OCO2
  -10, 1, 100, 109
C=CCOc1c(Cl)cc(/C=N\n2nnnc2N)cc1OC
  ., -3, 100, 106
Cc1ccc(OCCC(=O)N2CCN(Cc3ccccc3)CC2)cc1
  1, -6, 102, 98
COc1cc(N)cc(OC)c1OC
  -5, -16, 104, 104
CCn1c(SCC(=O)N2CCCCC2)nnc1-c1ccccc1O
  -4, -11, 102, 103
C=CP(=O)(O)c1ccccc1
  -15, -26, 99, 103
O=C(NCc1ccccc1)c1ccc2ncccc2c1
  -6, -8, 100, 102
CC(C)Cn1cc(C(=O)NCc2ccco2)c2c3ccccc3n(C)c2c1=O
  -16, -23, 103, 102
Nc1ccc(C(=O)Nc2ccc(C(=O)O)cc2N)cc1
  107, 3, 101, 98
COc1ccc(N(CC(=O)Nc2ccc(C(C)C)cc2)S(=O)(=O)c2c(C)noc2C)cc1
  0, -23, 100, 104
CSc1ccccc1NC(=O)CN1c2ccccc2CC1C (stereo unspecified)
  -34, -13, 97, 97
Cc1cc(C)n(-c2ccc(-n3cccc3)cc2)n1
  -1, 7, 97, 109
CCOC(=O)C1(NC(=S)N2CCOCC2)Sc2cc(C)ccc2NC1=O (stereo unspecified)
  ., 0, 100, 96
COc1ccc(OC)c(C(=O)COC(=O)C2Cc3ccccc3CN2C(=O)c2ccco2)c1 (stereo unspecified)
  184, -10, 104, 109
CCS(=O)(=O)N1CCc2cc(C(=O)CSc3nnc(-c4cccs4)n3C3CC3)ccc21
  2, -9, 106, 108
Cc1cc(NC(=O)CC(c2ccccc2)c2ccccc2)no1
  -6, ., 101, 94
CCOC(=O)Cc1nc(N)ncc1C(=O)OCC
  -21, 3, 101, 104
O=c1nc2n(c3ccccc13)C(c1ccccc1)C(O)=C2c1nc2ccccc2[nH]1 (stereo unspecified)
  17, -12, 99, 101
Cc1nc(SCC(=O)c2c[nH]c3ccccc23)n[nH]1
  7, -12, 100, 101
CCOC(=O)c1cc2ccc(OCc3ccccc3)cc2oc1=O
  2, -8, 102, 106
O=C(CSCc1ccccc1)Nc1cccc(-c2cn3cccnc3n2)c1
  104, -22, 99, 107
CN1CCC(/C=C/c2cccs2)=N1
  15, -8, 97, 104
[O-][n+]1onc2c(-c3ccc(Cl)cc3)nnc(-c3ccc(Cl)cc3)c21
  ., -1, 99, 96
COc1ccc(C(=O)OCc2nc3ccccc3c(=O)n2CC#N)c(OC)c1OC
  -2, -14, 104, 110
COc1ccccc1C(=O)N=S1CCN(c2ncc(C(F)(F)F)cc2Cl)CC1
  3, -5, 100, 103

# A portion of the results above:
# Results follow in this order: MbtI inh, MenB inh, Polio RdRp inh, Polio RdRp inh intensity
Cc1cc(=O)[nH]c(NN=C2CCN(Cc3ccccc3)CC2)n1
  -21, -6, 106, 104
O=C(CCNC(=O)c1ccccc1)Oc1ccc2c(c1)OCO2
  -10, 1, 100, 109
C=CCOc1c(Cl)cc(/C=N\n2nnnc2N)cc1OC
  ., -3, 100, 106
Cc1ccc(OCCC(=O)N2CCN(Cc3ccccc3)CC2)cc1
  1, -6, 102, 98
COc1cc(N)cc(OC)c1OC
  -5, -16, 104, 104
CCn1c(SCC(=O)N2CCCCC2)nnc1-c1ccccc1O
  -4, -11, 102, 103

# (list continues)
# Results follow in this order: MbtI inh, MenB inh, Polio RdRp inh, Polio RdRp inh intensity
CN(C)C(CNC(=O)c1cc2ccccc2oc1=O)c1ccco1 (stereo unspecified)
  34, 9, 103, 102
c1coc(-c2nnc3n2CCCCC3)c1
  -15, ., 101, 95
N#CC(C#N)C(CC(=O)c1ccccc1)c1ccc2c(c1)OCO2 (stereo unspecified)
  -7, -82, 101, 100
COc1ccc(NC(=O)COc2ccc(/C=N/n3c(C)nnc3C)cc2OC)cc1
  6, -13, 107, 101
CC(C)CNc1c(Cl)cnn(C)c1=O
  12, -23, 102, 103
Cc1cccc(NC(=O)CO/N=C/c2ccc3c(c2)OCO3)c1
  -7, -25, 102, 107
Cc1nc2sc3c(c2c(=S)[nH]1)CCC3
  15, -23, 100, 105
CC(C)(C)C(=O)Nc1ccc2c(c1)OCCO2
  -1, -36, 105, 104
O=C(c1nnc(-c2ccccc2)o1)C1CCCC1
  -9, ., 103, 106
O=C1CCC(C(=O)OCC(=O)NC23CC4CC(CC(C4)C2)C3)N1 (stereo unspecified)
  -7, ., 103, 100
C1=C(c2ccccc2)CCN(Cn2cnc3ccccc32)C1
  -2, -30, 103, 106
CCn1c(-c2ccc3c(c2)OCCO3)cnc1SCC(=O)N1CCCC1=O
  -40, -7, 103, 109
CCCCn1c(CO)nc2ccccc21
  -6, ., 103, 102
O=c1c2ccccc2c(C=Nc2ccccc2Cl)c(O)n1-c1ccc(Cl)cn1
  -6, ., 103, 106
COc1ccccc1NC(=O)Nc1ccnn1Cc1ccccc1
  18, 5, 104, 96
COc1ccc(CCNC(=O)c2cc3oc4ccccc4c3n2C)cc1OC
  96, -43, 102, 103
Cc1nc2scc(C)n2c1C=C(C#N)C#N
  9, -50, 93, 83
CCC(=O)Nc1cc2c(cc1C(=O)CC)OCCO2
  10, 14, 103, 104
O=C(Cc1csc(NC(=O)Nc2ccc(Cl)cc2)n1)Nc1nccs1
  -6, -4, 104, 108
CC(C)(C)N(CCO)C(=O)CN1C(=O)/C(=C/c2cccc(Br)c2)SC1=S
  4, -23, 100, 103
COC(=O)c1cc2occc2n1Cc1ccccc1
  8, -25, 102, 104
CSc1ccc(/C=c2/sc3nc4c(C)c(C)ccc4n3c2=O)cc1
  39, -42, 104, 103
CC(=O)Nc1ccc(SCC(=O)Nc2ccc(C#N)cc2)cc1
  0, -25, 101, 97
Cc1nc(-c2coc3cc(O)cc(O)c3c2=O)cs1
  14, 5, 99, 97
N#CC1=C(N)Oc2c(c(=O)[nH]c3ccccc23)C1c1ccccc1 (stereo unspecified)
  34, 12, 100, 95
CN(C)c1c(C(C#N)=C(C#N)C#N)c2ccccc2n1C
  ., -16, 96, 119
O=C(Cc1ccccc1)OCCN1CCCCC1
  ., -2, 109, 112
CS/C(Nc1cccc(Cl)c1Cl)=C(/C#N)C(=O)c1cccs1
  -13, -19, 104, 112
Cc1cccc(C(=O)Nc2ccc(NC(=O)c3cccs3)cc2)c1
  21, -18, 101, 97
Cc1cc(C)cc(C(=O)NCC(=O)N2CCN(c3cccc(Cl)c3)CC2)c1
  -1, ., 101, 96
Cc1cccc(NC(N)=O)c1
  -10, 1, 105, 109
COc1ccccc1OCC(=O)Nc1sc2c(c1C#N)CCCC2
  ., -29, 106, 102
Cc1nc2ccc(NC(=O)c3ccc4ncsc4c3)cc2s1
  6, -19, 102, 102
COc1cc2c(cc1OC)CN(C(=O)CSc1nnc3ccc4ccccc4n13)CC2
  -4, -19, 104, 102
O=C(O)CSCc1cn2cc(Cl)ccc2n1
  40, 15, 107, 100
CCCN1C(=S)N(CCO)C(=O)/C1=C/C=C1/Oc2ccccc2N1CCC(=O)O
  13, -119, 79, 175
O=C(Cc1ccccc1)OCC(=O)N1CCC(Cc2ccccc2)CC1
  0, ., 102, 97
CSc1nnc(-c2ccc(S(=O)(=O)N=S(C)(=O)c3ccc(Cl)cc3)s2)n1C (stereo unspecified)
  108, -7, 101, 102
CC(C)C(=O)N(Cc1cccnc1)Cc1cc2ccccc2[nH]c1=O
  88, 10, 101, 100
Cc1cc(C)nc(-n2nc(C)cc2NC(=O)c2ccc(F)cc2F)n1
  -10, ., 101, 108
COC(=O)CCC1CCCCC1=O (stereo unspecified)
  -12, -74, 103, 102
Cc1csc(Sc2ccc(S(=O)(=O)N3CCCC3)cn2)n1
  2, -8, 108, 107
CC12CC=CCC1C(=O)N(CCC(=O)O)C2=O (stereo unspecified)
  -17, -7, 102, 102
C/C(Cc1ccccc1)=N\NC(=O)c1cc(C(C)(C)C)[nH]n1
  -3, -5, 99, 103
CC(C)Oc1ccccc1C(=O)NC(CO)C(=O)O (stereo unspecified)
  ., -4, 102, 94
Cn1nccc1C(=O)Nc1cc(Cl)ccc1Cl
  -2, 2, 105, 103
CCOc1cc(/C=C2\SC(=NC)N(C)C2=O)c(Br)cc1OC(C)=O
  -23, -5, 101, 102
O=C(CN1C(=O)COc2ccccc21)c1ccc(Cl)cc1
  -6, -55, 104, 104
C=C1C(C(=O)Nc2ccccc2)C1C(=O)Nc1ccccc1 (stereo unspecified)
  -8, ., 102, 104
Oc1[nH]c2c(Cl)cc(Cl)cc2c1N=C1N=c2ccccc2=N1
  -28, ., 99, 99
COc1ccc(CCN2CC(C(=O)NCc3ccc(F)cc3)CC2=O)cc1OC (stereo unspecified)
  12, -29, 101, 97
Fc1ccccc1-c1nc(-c2cccs2)c(-c2cccs2)[nH]1
  117, -5, 104, 103
CC(=O)Nc1ccc(NC(=O)CC(c2ccccc2)c2ccccc2)cc1
  ., 7, 100, 98
Cc1ccc(-c2nn(CCC(=O)O)cc2/C=C2\SC(N)=NC2=O)cc1
  -1, -45, 103, 106
CCc1nc2c(cnn2-c2ccccc2)c(=O)n1CCc1ccccc1
  ., -15, 106, 112
OCC1OC(Oc2ccc3cc(Br)ccc3c2)C(O)C(O)C1O (stereo unspecified)
  -11, -11, 100, 103
Cc1ccc(/C=C/C(=O)N2CCN(c3ncc(C(F)(F)F)cc3Cl)CC2)o1
  1, -2, 100, 99
N#Cc1c(/N=C/c2cccn2-c2ccc(S(N)(=O)=O)cc2)sc2c1CCCC2
  -4, -12, 99, 105
COc1cc(-c2csc(NCC3CCCO3)n2)cc(OC)c1OC (stereo unspecified)
  2, -1, 99, 104
COc1ccccc1N1CCN(S(=O)(=O)c2ccc3[nH]c4c(c3c2)CCCCC4)CC1
  35, 15, 100, 97

# (further entries)
# Results follow in this order: MbtI inh, MenB inh, Polio RdRp inh, Polio RdRp inh intensity
CCN1CCOC(CC(=O)Nc2ccccc2)C1=O (stereo unspecified)
  74, 14, 98, 98
CCn1c(Cc2ccccc2)nnc1SCC(=O)c1ccc2[nH]c(=O)[nH]c2c1
  2, 4, 99, 90
N#CSCc1nc2ccccc2c2nc3ccccc3n12
  72, -1, 104, 104
Cc1ccc(S(=O)(=O)N(C)CC(=O)O)cc1
  -17, 4, 98, 101
N#CC(C#N)(CC(=O)N1CCCc2ccccc21)CC(=O)N1CCCc2ccccc21
  -4, -18, 98, 104
O=C(CSc1ncccc1C(=O)O)NC12CC3CC(CC(C3)C1)C2
  2, 3, 103, 108
COc1ccc(C2OC(=O)c3ccccc3S2)cc1 (stereo unspecified)
  ., -17, 109, 110
CCn1c(=O)c(=O)[nH]c2cc(C(=O)N3CCN(c4ccccc4O)CC3)ccc21
  -10, -2, 105, 110
CCCSc1nsc(NC(=O)/C=C/c2cccs2)n1
  14, -35, 106, 109
COC(=O)c1cccc(N2C(=O)C3C4C=CC(C)(O4)C3C2=O)c1 (stereo unspecified)
  99*, -5, 101, 102
S=C(NC1CCCCCC1)NC1CC1
  1, -2, 98, 101
Cc1ccc(-c2ocnc2C(=O)N2CCOCC2)cc1
  5, -3, 101, 104
O=C(CCCOc1ccccc1)NC1CCSC1=O (stereo unspecified)
  -3, -19, 103, 104
CC(C)C(O)(C(=O)OC[C@@H]1CCN2CCC[C@@H]12)C(C)O (stereo partly specified)
  ., -3, 104, 112
O=C(CN1C(=O)S/C(=C/c2ccc(Cl)cc2)C1=O)N1CCCCCC1
  24, ., 102, 100
O=C(CSC1=NCCS1)NC1CCCC1
  -6, -2, 104, 98
Cc1ccc(N2C(=O)c3ccccc3C2(O)c2ncc[nH]2)cc1 (stereo unspecified)
  -13, -2, 101, 103
CCc1c(C)nc2ccc(C)cc2c1Cl
  ., -25, 105, 102
CO[C@@]1(NC(=O)C(C(=O)O)c2ccc(O)cc2)C(=O)N2C(C(=O)O)=C(CSc3nnnn3C)CO[C@@H]21 (stereo partly specified)
  -4&-8, -2&-14, 99&103, 100&98
O=c1c2ccccc2c(C=NCc2ccncc2)c(O)n1-c1ccccc1Cl
  1, ., 104, 97
CCOC(=O)CCSc1n[nH]c(=S)s1
  85*, -22, 103, 107
O=S(=O)(c1ccc2ccccc2c1)N1CCN(c2ncnc3sccc23)CC1
  -6, -31, 109, 112
CS(=O)(=O)N(CCC#N)Cc1ccc(/C=C2\C(=O)N(c3ccccc3)c3ccccc32)o1
  16, -34, 114, 112
CN1C(=O)CCS(=O)(=O)C1c1ccc(Cl)cc1 (stereo unspecified)
  -6, -3, 100, 104
COc1cc(-c2n[nH]c(=O)n2C2CCCCC2)cc(OC)c1OC
  11, -8, 102, 102
Cc1cc(C)cc(NC(=O)C(C)Oc2ccccc2)c1 (stereo unspecified)
  ., -5, 104, 110
CCc1ccccc1OCC(=O)Nc1ccc(S(N)(=O)=O)cc1
  -16, -1, 105, 110
O=C(NCc1ccccc1)C1=Cc2sc3c(c2CS1)CCCC3
  30, -36, 100, 95
CCn1c(SCc2ccccc2)nnc1-c1cccnc1
  -22, -6, 99, 100
CSc1ccc(S(=O)(=O)NCC2CCCO2)cc1 (stereo unspecified)
  -11, -5, 99, 102
